# Assay outcomes: PubChem BioAssay, several laboratories
# eIF4H FP inh: human eIF4H binding inhibitors, primary screen, translation initiation inhibitor project, biochemical, uHTS, fluorescence polarization | eIF4H fluorescence polarization binding assay | 290,000 compounds, 0.94% hits | inhibition, % at 35 µM | AID 2012, 2009;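 active = 50% or more with normal probe brightness, or confirmed in later tests; inconclusive = above 50% with abnormal brightness, or retests that disagree; inactive = below 50% or failed in later tests; about a fifth of its hits are not listed in these tables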;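 note: calls also rest on retests at 20 µM and on dose response follow-up; 0% = protein and probe with vehicle and 100% = probe without protein; strong numbers were not always called active; many hits fall short of the cut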
# HIV Env fusion: inhibitors of HIV-1 Env-driven cell-cell fusion, primary screen, HeLa-JRFL effector, CEM21 target cells, luciferase | inhibition, % at 12.3 µM | 360,000 compounds, 1.1% hits;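 active = mean replicate inhibition score of at least 50 and every replicate individually at or above 50; inconclusive = only one of the two criteria met; inactive = mean below 50 and not all replicates reaching 50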;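 note: 0% = plate neutral controls and 100% = maraviroc near 300 nM; one replicate is shown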
# Rce1 inhib: yeast Rce1p protease inhibitors, primary screen, biochemical, fluorescence, cell-free homogeneous; yeast membranes, quenched prenylated peptide cleavage fluorescence; CAAX prenyl protease 2 (Saccharomyces cerevisiae (strain ATCC 204508 / S288c)), Q03530; calls only; 290,000 compounds, 0.27% hits;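 active = fall in fluorescence gain of 50% or more versus controls, with final raw signal at or below 3038400; inconclusive = same 50% fall but final raw signal above 3038400; inactive = fall in fluorescence gain under 50%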;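 note: plate controls were neutral control wells for no effect and wells lacking membranes for full effect; tested at 10 µM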
# UUG fidelity: modulators of yeast start codon fidelity, primary screen, whole organism, S. cerevisiae, single point, plate reader. activity score, % at 18.7 µM. 350,000 compounds, 0.13% hits. AID 602363, 2012. S. cerevisiae UUG-firefly luciferase reporter, luminescence/redox ratio;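 active = replicate mean at a twofold rise or more, about +100% in these data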;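 note: firefly luciferase made from a UUG start codon reports start codon fidelity; reporter light over untreated wells divided by growth signal over untreated wells; some hits fall short of that in this replicate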
# MT1-MMP act inh: blockers of MT1-MMP proenzyme processing, primary screen, HT1080 RFP-PRO-GFP cells, GFP/RFP fluorescence | 360,000 compounds, 0.061% hits | GFP/RFP ratio change, % at 20 µM | AID 651647, 2012 | GFP/RFP ratio fluorescence, overnight; percent of plate control window, DMSO zero;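 active = GFP/RFP ratio change of at least 30% with cell ATP level not reduced by more than half and red fluorescence within 50% of control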; note: strong numbers were not always called active
#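 Test system: HT1080 cells expressing an RFP-PRO-GFP fluorescent reporter construct / Compound dosing: single-point 20 µM compound, 1% DMSO / Schedule: cells overnight before dosing, compound overnight, 37 °C, 5% CO2 / Evaluation: GFP/RFP fluorescence ratio / Control set: DMSO and RFP-L50D-GFP cell wells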
# CSC inhib: cancer stem cell viability inhibitors, primary screen, luminescence | cancer stem cell-like cells viability | inhibition, % at 7.5 µM | 300,000 compounds, 1.1% hits | AID 2717, 2010;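 active = mean at 75% or more and at least half the replicates too; inconclusive = mean and replicates disagree; tested in HMLE shEcad cells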;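 note: 0% = median of negative and 100% = median of positive control wells; the first replicate is given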
# PABP FP inh: PABP poly(A) RNA binding inhibitors, primary screen, biochemical, fluorescence polarization, uHTS. Polyadenylate-binding protein 1 (Homo sapiens), P11940. inhibition, % at 35 µM. 290,000 compounds, 1% hits. AID 2014, 2009;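 active = 50% or more with normal probe brightness, or confirmed in later tests; inconclusive = above 50% with abnormal brightness, or retests that disagree; inactive = below 50% or failed in later tests; about a fifth of its hits are not listed in these tables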;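 note: calls also rest on retests at 20 µM and on dose response follow-up; controls were probe without protein and protein plus probe with vehicle; some compounds called inactive have numbers as strong as hits; many hits fall short of the cut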
# Target sequence (P11940 whole entry, looked up): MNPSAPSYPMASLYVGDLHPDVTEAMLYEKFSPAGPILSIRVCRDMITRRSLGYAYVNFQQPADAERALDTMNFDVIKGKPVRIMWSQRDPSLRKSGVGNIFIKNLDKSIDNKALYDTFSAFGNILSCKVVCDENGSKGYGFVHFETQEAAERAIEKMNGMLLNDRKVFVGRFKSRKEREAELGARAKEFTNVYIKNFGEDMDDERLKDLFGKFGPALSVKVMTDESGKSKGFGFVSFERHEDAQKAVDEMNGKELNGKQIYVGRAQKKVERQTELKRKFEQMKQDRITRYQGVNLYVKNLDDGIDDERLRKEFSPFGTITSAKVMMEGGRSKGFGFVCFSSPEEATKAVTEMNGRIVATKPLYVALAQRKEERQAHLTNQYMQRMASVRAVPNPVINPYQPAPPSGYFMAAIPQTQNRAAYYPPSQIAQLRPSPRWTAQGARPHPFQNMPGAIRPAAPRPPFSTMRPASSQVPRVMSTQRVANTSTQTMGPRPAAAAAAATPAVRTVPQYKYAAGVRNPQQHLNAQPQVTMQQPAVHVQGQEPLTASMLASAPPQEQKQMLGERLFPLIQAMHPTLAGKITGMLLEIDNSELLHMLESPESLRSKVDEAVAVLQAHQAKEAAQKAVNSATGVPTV
# MT1-MMP act inh RFP: recorded beside MT1-MMP act inh, whose call it bears; RFP signal change, %; measured here: RFP expression control read;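 0 = vehicle wells; hits needed this value within 50% of zero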
# The depositor's hits bear a star; i = inactive; ? = inconclusive; nt = no result given; & = joins results of further samples.
SMILES,eIF4H FP inh,HIV Env fusion,Rce1 inhib,UUG fidelity,MT1-MMP act inh,MT1-MMP act inh RFP,CSC inhib,PABP FP inh
CCC(C)(C)NC(=O)CN(Cc1ccc2c(c1)OCO2)C(=O)CCC(=O)Nc1nccs1,2,-20,nt,nt,0,3,-17,26
Cc1ccc(CS/C(Nc2ccccc2C)=C(\C#N)C(N)=O)c(C)c1,15,19,i,nt,-6,-14,5,22
O=C(c1cccc(NS(=O)(=O)c2ccc(Br)cc2)c1)N1CCCCC1,nt,nt,i,nt,1,-6,-9,nt
O=C(Cc1ccc(F)cc1)NCCc1cnc[nH]1,3,8,i,-7,4,8,-4,2
O=C(NCC1CCCO1)c1cc(NS(=O)(=O)c2cccs2)cc(NS(=O)(=O)c2cccs2)c1 (stereo unspecified),-7,5,i,-16,2,6,2,3
Cc1ccc(C(=O)c2ccccc2C(=O)OCC(=O)NCCc2ccccc2)cc1,-6,nt,i,1,-2,-3,nt,7
O=C(O)/C=C(/c1ccccc1)C(F)(F)F,nt,-19,nt,-20,-1,2,nt,nt
CCCNC(=O)CC(NS(=O)(=O)c1ccc(Cl)cc1)c1ccco1 (stereo unspecified),9,nt,i,-7,1,2,-3,10
CCc1ccc(OCC2NCCc3cc(OC)c(OC)cc32)cc1 (stereo unspecified),32,-9,i,-4,-2,-3,8,-2
O=C1NC2(CCCCCC2)C(=O)N1Cc1ccc([N+](=O)[O-])cc1,0,-1,i,nt,2,2,-9,-10
O=C(Nc1ccc2c(c1)OCO2)C1COc2ccccc2O1 (stereo unspecified),-7,-19,i,nt,1,3,6,0
COc1ccc(/C=N/NC(=O)c2ccncc2)c(OC)c1,-7,15,i,-12,0,3,-1,0
NC(=O)NC(c1ccc(Cl)cc1)c1ccccc1Cl (stereo unspecified),-6,5,i,nt,-3,-5,-8,-6
NNC(=S)Nc1ccc(S(=O)(=O)N2CCCCC2)cc1,1,4,nt,nt,2,1,11,5
COc1ccccc1CNCC(=O)Nc1cc(S(=O)(=O)N2CCCCC2)ccc1C,nt,25,nt,5,3,-3,nt,nt
Cc1nc(Br)c(Br)c(C)c1Br,4,9,i,-2,-3,4,-7,15
CCCCCc1ccc(-c2cn(CCc3c[nH]c4ccccc34)nn2)cc1,8,-31,i,-8,3,-3,-16,-3
CCCn1c(=O)c(C#N)cn(C2CC2)c1=O,2,9,i,nt,2,2,-14,0
CCOC(=O)c1cc(S(=O)(=O)NCc2ccc3c(c2)OCO3)cn1C,-3,-2,i,-5,-2,0,-1,-3
CCC(CC)NC(=O)Nc1ccc(C)cc1,-6,-8,i,-14,-1,-5,-11,-4
Cc1ccc[n+](CC(=O)N2CCCc3ccccc32)c1,-6,-4,i,2,0,6,1,-7
COc1cc(C2NC(=S)NC(C)=C2C(=O)Nc2ccc(C)cc2)ccc1O (stereo unspecified),-4,-4,i,nt,-2,-4,nt,4
CN(C)S(=O)(=O)c1ccc(C(=O)NCc2nnc(SCC(=O)NCc3ccco3)o2)cc1,-6,-12,i,-20,-4,2,15,-1
COc1ccccc1NC(=S)NC1CCC(CC2CCC(NC(=S)Nc3ccccc3OC)CC2)CC1 (stereo unspecified),0,-1,i,nt,1,-11,30,7
O=[N+]([O-])c1ccc2[nH]c3c(c2c1)CCCC3,4,-27,i,-10,6,7,18,-4

# Overlap with the part before: 7 entries, followed by the next part.
SMILES,eIF4H FP inh,HIV Env fusion,Rce1 inhib,UUG fidelity,MT1-MMP act inh,MT1-MMP act inh RFP,CSC inhib,PABP FP inh
CCOC(=O)c1cc(S(=O)(=O)NCc2ccc3c(c2)OCO3)cn1C,-3,-2,i,-5,-2,0,-1,-3
CCC(CC)NC(=O)Nc1ccc(C)cc1,-6,-8,i,-14,-1,-5,-11,-4
Cc1ccc[n+](CC(=O)N2CCCc3ccccc32)c1,-6,-4,i,2,0,6,1,-7
COc1cc(C2NC(=S)NC(C)=C2C(=O)Nc2ccc(C)cc2)ccc1O (stereo unspecified),-4,-4,i,nt,-2,-4,nt,4
CN(C)S(=O)(=O)c1ccc(C(=O)NCc2nnc(SCC(=O)NCc3ccco3)o2)cc1,-6,-12,i,-20,-4,2,15,-1
COc1ccccc1NC(=S)NC1CCC(CC2CCC(NC(=S)Nc3ccccc3OC)CC2)CC1 (stereo unspecified),0,-1,i,nt,1,-11,30,7
O=[N+]([O-])c1ccc2[nH]c3c(c2c1)CCCC3,4,-27,i,-10,6,7,18,-4
O=C(c1c(F)cccc1F)N(Cc1ccccc1)Cc1ccccc1,-13,12,i,-1,0,2,9,-7
C[C@@H]1CCCCO[C@H](CN(C)C(=O)Nc2ccc3c(c2)OCO3)[C@H](C)CN([C@@H](C)CO)C(=O)c2cc(NS(=O)(=O)c3ccc(Cl)cc3)ccc2O1,nt,-45,nt,-14&-8,4,-5,nt,nt
O=C(C1CCC(=O)N1Cc1cccs1)N1CCOCC1 (stereo unspecified),4,-11,i,nt,0,0,4,-10
CC(C)C(NC(=O)CN(c1cccc(F)c1)S(C)(=O)=O)C(C)C,6,13,i,1,1,2,3,6
COc1ccc(S(=O)(=O)N2CCOC23CCN(S(=O)(=O)c2cc(C)ccc2C)CC3)cc1,nt,11,i,-18,-2,-2,2,nt
CN1CCN(c2ccc(CNS(=O)(=O)c3ccc(Cl)cc3)cc2)CC1,-12,-2,i,2,-4,0,69,-3
O=C(NCC1CCOCC1)C1Cc2c(-c3ccccc3Oc3ccccc3)ccnc2O1 (stereo unspecified),nt,-2,nt,21,-2,-5,nt,nt
Cc1ccccc1[C@@H]1C(C#N)=C(N)S[C@H]1C(=O)c1ccccc1,-9,-16,i,-4,-1,-7,nt,-4
CC1CCCCC1n1c(=S)[nH]c2ccccc2c1=O (stereo unspecified),14,8,i,nt,2,-2,45,3
COc1ccc(/C=C/C(=O)Nc2ccc(NC(C)=O)cc2)cc1S(=O)(=O)N1CCOCC1,7,1,i,-3,-1,1,-1,-7
CN(c1ccccc1C(=O)NCc1ccccc1Cl)S(=O)(=O)c1ccccc1,12,-1,i,8,3,-3,5,3
Cc1ccc(OCC(=O)NCCCNC(=O)c2ccccn2)cc1C,-14,5,i,-26,1,3,-4,-1
COc1ccccc1C(CCNCc1ccccc1)c1ccc(OC(C)C)cc1 (stereo unspecified),-19,22,i,-10,-9,-13,58,1
NC(=S)N/N=C/c1cc([N+](=O)[O-])ccc1OCCOc1ccccc1,5,nt,i,-14,-2,5,-15,3
CC1CCCC(C)N1/N=C/c1cccc(Br)c1 (stereo unspecified),3,-4,i,1,2,3,-11,0
COc1ccc(-n2ncc3c(=O)n(CC(=O)N4CCCc5ccccc54)cnc32)cc1,3,7,i,-16,-1,-13,nt,-5
CCN(CC)CCNC(=O)/C(=C/c1cn(C)c2ccccc12)NC(=O)c1ccc(OC)c(OC)c1,3,-8,i,nt,1,6,-1,-3
Clc1ccc(C2[C@H]3CN(CC4CCCCC4)[C@H](c4ccccc4)C34CC2(c2ccccc2)C4)cn1 (stereo partly specified),-4,-10,i,-7,-3,-11,39,-8
CCCS(=O)(=O)N1CCC(C(=O)NCc2cccnc2)CC1,-3,nt,i,nt,6,1,5,7
CCN(CC(=O)Nc1ccc(NC(C)=O)cc1)C(=O)/C=C/c1c(C)nn(-c2ccc(F)cc2)c1C,-4,nt,i,9,0,1,-3,11
Cc1nnc(SCC(=O)N(C(C)C)C(C)C)[nH]c1=O,-4,-1,i,-13,1,-1,-4,-8
COc1nc(N)c(S(=O)(=O)c2ccc(C)cc2)cc1C#N,-8,-3,i,14,0,2,-12,0
Cc1sc(NC(=O)CSc2nnnn2C2CCCCC2)c(C#N)c1C,-2,-31,i,-15,7,-3,-8,-4
COCCNC(=O)C1CCCN(C(=O)c2cc(-c3ccccc3)cs2)CC1 (stereo unspecified),nt,-10,nt,-7,2,-1,nt,nt
O=C(COC(=O)C1=COCCO1)NC1CCCCC1,nt,-2,i,nt,2,2,7,nt
# Next entries
SMILES,eIF4H FP inh,HIV Env fusion,Rce1 inhib,UUG fidelity,MT1-MMP act inh,MT1-MMP act inh RFP,CSC inhib,PABP FP inh
O=C1CC2(CCN(C(=O)C3CC(=O)N(c4ccccc4)C3)CC2)Oc2ccccc21 (stereo unspecified),nt,-29,i,-7,3,-5,-17,nt
O=C(NCCC1=CCCCC1)c1cc2ccccc2oc1=O,11,-6,i,nt,1,7,-10,0
CCc1nn(CC(=O)Nc2cc(C)ccc2C)c(=N)s1,9,10,i,nt,2,1,-1,5
CSc1ccc(CN2CCCN(C)CC2)cc1,4,0,i,-33,-2,4,12,-2
O=C(CCl)N1CCN2C(=O)c3ccccc3C12c1ccc(Cl)cc1 (stereo unspecified),-1,-15,i,nt,-3,-2,59,-17
CCn1c(CNC(=O)c2ccccc2F)cc2ccccc21,5,-4,i,5,-2,-4,8,-2
COC(=O)c1c(NC(=O)CCC(=O)O)sc2c1CCCCC2,-12,-21,i,nt,0,2,16,6
CCc1nnc(NC(=O)CCN(c2cc(C)cc(C)c2)S(=O)(=O)c2ccc(Cl)cc2)s1,-4,-8,i,-8,nt,nt,45,1
CCn1c(Cc2ccccc2)nnc1SCC(=O)Nc1ccc(C)cc1,-12,10,i,-21,7,3,-7,10
CCCCOC(=O)CSCC(=O)Nc1cc(C)on1,-2,10,i,-8,5,8,-9,-2
O=C(CN(CCc1ccccc1)Cc1ccccc1)Oc1ccccc1P(=O)(O)O,-1,-4,i,-15,3,3,-15,2
COC(=O)c1c(NC(=O)CSc2ncnc3ccccc23)sc(C)c1C,nt,6,i,-21,-13,-8,36,nt
CCOC(=O)c1cc(-c2ccc(Cl)s2)nc2c1c(C)nn2C,5,nt,i,nt,nt,nt,nt,5
Cn1nnnc1Sc1ncnc2scc(-c3cccc4c3sc3ccccc34)c12,nt,?,nt,-6,-3,-17,111*,nt
C=CCNC(=O)c1cccc(OC2CCN(CC(C)(C)C)CC2)c1,5,-48,i,-2,-1,-1,-17,18
C=CCc1cccc(/C=C/c2cc(=O)c3ccccc3[nH]2)c1O,-3,-11,i,nt,-9,-9,-7,7
O=C1NCCN1C(=O)c1ccccc1F,6,-184,i,-17,1,6,-15,-11

# Single records, from the list above. Values in the order: eIF4H FP inh | HIV Env fusion | Rce1 inhib | UUG fidelity | MT1-MMP act inh | MT1-MMP act inh RFP | CSC inhib | PABP FP inh
# `CCCCOC(=O)CSCC(=O)Nc1cc(C)on1` is listed with -2 | 10 | i | -8 | 5 | 8 | -9 | -2
# `CCOC(=O)c1cc(-c2ccc(Cl)s2)nc2c1c(C)nn2C` is listed with 5 | nt | i | nt | nt | nt | nt | 5
